Screening data (PubChem BioAssay)
Lassa entry inh: qHTS for Inhibitors of binding or entry into cells for Lassa Virus | Lassa virus pseudotype entry inhibition, cell reporter; control for the full effect not named in the record | Potency, µM (doses to about 37.9 µM), for inactives: top-dose activity change, negative = inhibition, most hits filed as inhibitors | 300,000 tested, 1.2% active; active means well fitted inhibition curve with a large enough effect; inconclusive means small, poorly fitted or top-dose-only effect, or effect the other way; inactive means flat fitted curve, though single readings scatter; tested in HEK293 cells; also: % is scaled to controls: 0 for no effect and ±100 for the full control effect; nearly all actives have a fitted effect of over 50% in size; luciferase read-out
SARS PLP yeast: qHTS of Yeast-based Assay for SARS-CoV PLP | AID 485353, 2010 | Potency, µM (top dose mostly 32.9 µM), without a hit: at the top dose activity, positive = growth rescue | S. cerevisiae expressing SARS-CoV PLpro, growth rescue; control for the full effect not named in the record | 330,000 tested, 0.19% active; active means well fitted rising curve with a large enough effect; inconclusive means small, poorly fitted or top-dose-only effect; inactive means no such curve, though single readings can be large or run the other way; also: 0% is about no effect; nearly all actives have a fitted effect of over 55% in size; growth read by luminescence after 48 h
Marburg entry inh: qHTS for inhibitors of binding or entry into cells for Marburg Virus. Marburg virus pseudotyped entry inhibition, cell reporter; control for the full effect not named in the record; about a third of the inactives were read at about 46 µM. Potency, µM (top dose mostly 37.8 µM), inactives show top-dose activity change, negative = inhibition, hits mostly inhibitors. 300,000 tested, 1.8% active. AID 540276, 2011; active = well fitted inhibition curve with a large enough effect; inconclusive = small, poorly fitted or top-dose-only effect, or effect the other way; inactive = flat fitted curve, though single readings scatter; tested in HEK293 cells; about a fifth of its hits are not listed in these tables; also: % is scaled to controls: 0 for no effect and ±100 for the full control effect; luciferase read-out
2A StopGo: High Throughput Screening for Foot and Mouth Disease Virus Antivirals | human cells with a luciferase reporter of 2A StopGo recoding; control for the full effect not named in the record | Potency, µM (doses to about 57.9 µM), for the others: at the top dose signal change, negative = less light | 410,000 tested, 1.2% active | AID 1159524, 2015; active = well fitted falling curve with a large enough effect; inconclusive = small, poorly fitted or top-dose-only effect; inactive = no such curve, though single readings can be large or run the other way; tested in HEK293T cells; also: % is scaled to controls: 0 for no effect and ±100 for the full control effect; nearly all actives have a fitted effect of over 45% in size; luciferase light after 4 h
NS1 inh: qHTS Assay for Inhibitors of Influenza NS1 Protein Function | S. cerevisiae slowed by influenza A NS1, growth recovery by OD600 | Potency, µM (top dose mostly 46.1 µM), inactives show at the top dose activity, positive = more growth | 270,000 tested, 0.4% active | AID 2326, 2010; active means well fitted rising curve with a large enough effect; inconclusive means small, poorly fitted or top-dose-only effect; inactive means no such curve, though single readings can be large or run the other way; also: nearly all actives have a fitted effect of over 50% in size
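OD600 was taken as the measure of yeast growth restored by compound in an NS1-expressing S. cerevisiae strain. Cells had been washed out of glucose medium and diluted 1:100 into galactose -URA medium, pH 6.0.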
RE007 growth inh: qHTS Assay for Inhibitors of the HIV-1 protein Vpr; S. pombe RE007 Vpr strain, BacTiter-Glo ATP luminescence, 24 h; control for the full effect not named in the record; Potency, µM (titrated, usually from 92.2 µM), without a hit: at the highest dose activity change, negative = less growth; 360,000 tested, 0.21% active; active = well fitted falling curve with a large enough effect; inconclusive = small, poorly fitted or top-dose-only effect; inactive = no such curve, though single readings can be large or run the other way;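 also: % is scaled to controls: 0 for no effect and ±100 for the full control effect; nearly all actives have a fitted effect of over 50% in size; the assay follows cell death caused by Vpr and the record does not say whether a fall means rescue or toxicity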
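Fission yeast strain RE007, carrying one chromosomally integrated HIV-1 vpr copy, was seeded at OD 0.01 in PMG+AL medium with 23 nL pinned compound. After 24 h at 30 °C and 99% humidity, viability was read by BacTiter-Glo luminescence.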
Cruzain inh Det: qHTS Assay for Promiscuous and Specific Inhibitors of Cruzain (with detergent) | 200,000 tested, 0.43% active | Potency, µM, without a hit: max response, negative = inhibition, usual class: inhibitors | Cruzipain (Trypanosoma cruzi), P25779 | purified cruzain, Z-FR-AMC fluorescence, 0.01% Triton;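 also: plate controls were neutral wells for no effect and buffer without enzyme for full effect; nearly all actives have a fitted effect of over 40% in size; top concentration of the series not given in the record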
Target sequence (P25779 123-467 limits assumed): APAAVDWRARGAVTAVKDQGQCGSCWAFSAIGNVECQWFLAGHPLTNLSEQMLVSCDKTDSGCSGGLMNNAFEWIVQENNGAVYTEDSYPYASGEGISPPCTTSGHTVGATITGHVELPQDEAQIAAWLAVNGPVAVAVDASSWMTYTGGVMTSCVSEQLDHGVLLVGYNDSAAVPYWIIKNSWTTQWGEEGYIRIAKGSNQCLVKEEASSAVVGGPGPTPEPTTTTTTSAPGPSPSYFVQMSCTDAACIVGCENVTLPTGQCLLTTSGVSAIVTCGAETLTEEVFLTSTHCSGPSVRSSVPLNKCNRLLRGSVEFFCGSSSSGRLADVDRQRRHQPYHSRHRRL
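Enzyme 1.5 nM, Z-FR-AMC 2 uM, NaOAc 100 mM pH 5.5, DTT 5 mM, Triton X-100 0.01%; 15 min RT compound preincubation; kinetic ex360/em450, 60 s delta.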
Cruzain noTriton: qHTS Assay for Promiscuous and Specific Inhibitors of Cruzain (without detergent) | 200,000 tested, 2.3% active | Cruzipain (Trypanosoma cruzi), P25779 | Potency, µM, without a hit: max response, negative = inhibition, most hits filed as inhibitors | purified cruzain, Z-FR-AMC fluorescence, no detergent;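 also: plate controls were enzyme without inhibitor for no effect and buffer without enzyme for full effect; nearly all actives have a fitted effect of over 40% in size; top concentration of the series not given in the record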
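Purified cruzain at 1.5 nM, pre-incubated 15 min with compound at room temperature in 100 mM sodium acetate pH 5.5, 5 mM DTT, 0.00005% Triton X-100. Reaction started with 2 uM Z-FR-AMC; AMC fluorescence increase over 60 s gives rate.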
Active calls of the source: *; ? = inconclusive; nt = not tested or not shown; & = joins results of further samples; [ ] = dose if it differs, or a comment. Unless noted, calls follow the shape of the dose curve; as a rule, active = well fitted curve in the direction sought with a large enough effect; inconclusive = small, poorly fitted or top-dose-only effect, or another doubt; inactive = no such curve, though single readings can be large; an effect the other way counts as inactive or inconclusive. Potency is read from the fitted curve at half-maximal effect. Hits appear at their usual frequency, and some 4.5% of all compounds hit somewhere here.

SMILES	Lassa entry inh	SARS PLP yeast	Marburg entry inh	2A StopGo	NS1 inh	RE007 growth inh	Cruzain inh Det	Cruzain noTriton
C=CCOc1ccccc1/C=N/O	4%	-2%	17%	6%	0%	5%	-0.9%	-1%
CC1CN(S(=O)(=O)c2ccc(C(=O)O)cc2)CC(C)O1 (stereo not given)	nt	1%	nt	-12%	1%	-16%	nt	nt
COC(=O)COc1cc(Br)c(/C=C2/SC(=O)N(CC(=O)N3CCCC3)C2=O)cc1OC	6%	2%	-3%	?	8%	5%	-0.6%	?
COc1ccc(CNc2ccc3cc(S(=O)(=O)N4CCCCC4)ccc3n2)cc1	?	nt	nt	-19%	nt	nt	-5.6%	?
O=C(O)c1cccc2c1C(=O)N(Cc1ccncc1)C2	1%	7%	9%	-22%	-18%	2%	3.0%	-7%
CCOc1ccc(CCNC(=O)COC(=O)/C=C/c2ccc(C)o2)cc1OCC	7%[46.1 µM]	1%	16%[46.1 µM]	-19%	-3%	-1%	nt	nt
CCOC(=O)c1sc2nc3n(c(=O)c2c1C)CCC3	?	23%	15%[46.1 µM]	20%	-13%	2%	-4.6%	14%
COc1ccccc1OCC(=O)Nc1nc(-c2ccc(S(=O)(=O)N3CCOCC3)cc2)cs1	?	nt	?	?	nt	9%	nt	nt
CCOCCCNC(=O)c1ccc(CS(=O)(=O)c2cccc(C(F)(F)F)c2)o1	3%	2%	1%	3%	-3%	-1%	nt	nt
CC1C(=O)C(C)(C)C(=O)OC1c1ccccc1 (stereo not given)	nt	1%	nt	5%	-1%	5%	nt	nt
COc1ccc(OCc2cc(C(=O)N3C[C@@H](C)O[C@@H](C)C3)no2)c(Cl)c1	1%	29%	?	54%[activator]	-1%	-9%	nt	nt
COC(=O)c1ccc(C23CC4(C2)[C@H](CN(Cc2cccnc2)[C@@H]4c2ccccc2)C3c2ccc(C(F)(F)F)cc2)cc1 (stereo not given in full)	nt	-5%	nt	-18%	18%	1%	0.7%	-18%
CCCCN1C(=O)CC(C(=O)OCC)=C1C	nt	2%	nt	10%	2%	2%	nt	nt
Cc1nc2sccn2c(=O)c1S(=O)(=O)Nc1cccc(Cl)c1C	-22%[46.1 µM]	0%	-19%[46.1 µM]	-1%&12%	-12%	-3%	-8.3%	0%
Cc1cc(C(=O)O)ccc1-n1c(C)cc(/C=C(/C#N)C(=O)Nc2ccccc2)c1C	?	-3%	-27%[46.1 µM]	-23%	4%	19%	nt	nt
CCc1ccc(NC(=O)Cn2c(=O)n(CCCCC(=O)NCCc3ccc(Cl)cc3)c(=O)c3ccccc32)cc1	-1%[46.1 µM]	nt	-3%[46.1 µM]	-24%	nt	nt	-1.5%	0%
COC(=O)Nc1ccc(Cn2cc(C(F)(F)F)ccc2=O)cc1	-9%	0%	16%[46.1 µM]	-1%	nt	-10%	nt	nt
CN(c1cccc(NC(=O)CN(c2cccc(F)c2)S(C)(=O)=O)c1)S(C)(=O)=O	?	-1%	2%[46.1 µM]	-10%	nt	10%	nt	nt
Cc1ccc(S(=O)(=O)N2CCCC(C(=O)NCCc3ccccc3)C2)cc1 (stereo not given)	-15%	0%	-8%	9%	0%	10%	nt	nt
COc1ccccc1N1CCN(C(=O)CSc2nc3ncnc(N)c3[nH]2)CC1	-4%	3%	-7%	nt	-73%	1%	-0.5%	-5%
Cc1ccc2c(c1)N(C(=O)CCC(=O)NCc1cccc(F)c1)CCO2	nt	-1%	nt	-10%	15%	-2%	nt	nt
C/C(=N\NC(=O)c1nnn(-c2nonc2N)c1CSc1ccc(Cl)cc1)c1cccnc1	nt	2%	nt	-6%	21%	-1%	nt	nt
CCCOP(=O)(c1ccc(N(C)C)cc1)C(O)c1ccc(Cl)cc1 (stereo not given)	6%	1%	-9%	25%	0%	1%	nt	nt
S=C(NCCc1ccccc1)Nc1ccccn1	10%	5.6µM*	?	54%[activator]	-2%	-19%	-5.3%	-7%
CCCCc1nn2c(=O)cc(COC(=O)c3ccc4c(c3)OCO4)nc2s1	8%[46.1 µM]	nt	nt	-16%	nt	nt	-1.6%	-2%

Retrieved by compound from the entries so far (four):
SMILES	Lassa entry inh	SARS PLP yeast	Marburg entry inh	2A StopGo	NS1 inh	RE007 growth inh	Cruzain inh Det	Cruzain noTriton
Cc1ccc2c(c1)N(C(=O)CCC(=O)NCc1cccc(F)c1)CCO2	nt	-1%	nt	-10%	15%	-2%	nt	nt
CCCOP(=O)(c1ccc(N(C)C)cc1)C(O)c1ccc(Cl)cc1 (stereo not given)	6%	1%	-9%	25%	0%	1%	nt	nt
O=C(O)c1cccc2c1C(=O)N(Cc1ccncc1)C2	1%	7%	9%	-22%	-18%	2%	3.0%	-7%
C/C(=N\NC(=O)c1nnn(-c2nonc2N)c1CSc1ccc(Cl)cc1)c1cccnc1	nt	2%	nt	-6%	21%	-1%	nt	nt

Further entries follow:
SMILES	Lassa entry inh	SARS PLP yeast	Marburg entry inh	2A StopGo	NS1 inh	RE007 growth inh	Cruzain inh Det	Cruzain noTriton
Cc1nc(Cl)c(C(=O)NCc2ccccc2)c(C)c1Cl	-1%	1%	-5%	-2%	nt	2%	nt	nt
CC(=O)c1ccc(NC(=O)CN2C(=O)CCc3cc(S(=O)(=O)N4CCC(C)CC4)ccc32)cc1	-10%[46.1 µM]	nt	nt	29%	nt	nt	-4.8%	?
O=C(Nc1ccc(Cl)cc1C(=O)N1CCOCC1)c1ccco1	4%	4%	1%	-24%	2%	-6%	2.8%	-3%
COc1cccc(OCCNC(=O)c2cc(OC)c(OC)c(OC)c2)c1	?	0%	?	-16%	-1%	6%	nt	nt
O=[N+]([O-])c1ccccc1S(=O)(=O)N/C(=N/S(=O)(=O)c1ccccc1)c1ccccc1	13%[46.1 µM]	11%	7%[46.1 µM]	11%	nt	-9%	nt	nt
COC(=O)C1=C(C)N(Cc2ccccc2)C(=S)N[C@H]1c1ccccc1	nt	19%&-2%	nt	-23%	-20%&-9%	6%	nt	nt
CC1CCCN(CCS(=O)(=O)c2ccccc2)C1 (stereo not given)	9%[46.1 µM]	nt	?	25%	nt	3%	nt	nt
NC(=O)C1CCCN(C(=O)c2cccc(NC(=O)c3cccs3)c2)C1 (stereo not given)	-3%	0%	7%[46.1 µM]	10%	nt	1%	nt	nt
CC(=O)NCC(=O)N[C@@H](CC(=O)OCc1ccccc1)C(=O)OCc1ccccc1	nt	1%	-2%	-7%	-4%	4%	nt	nt
Cc1ccc(-n2cnc3cc(C(=O)NCCC4=CCCCC4)ccc32)cc1Cl	13%[46.1 µM]	nt	nt	3%	nt	nt	0.3%	-7%
O=c1nc(-c2ccccc2)c2cc(SC(F)F)ccc2[nH]1	-12%	-1%	1%	-22%	16%	3%	nt	nt
CCOC(=O)C1(Cc2ccc(OC)cc2)CCN(C(=O)[C@@H]2CCCN2C(C)=O)CC1	nt	1%	nt	40%[activator]	1%	9%	nt	nt
COc1ccc(C2CC(c3ccc(Cl)cc3)=NN2C(=O)c2cccc([N+](=O)[O-])c2)cc1 (stereo not given)	?	13%	-12%	1%	?	11%	-5.9%	?
CC(C)C(=O)Nc1ccc2c(c1)Cc1cc(NC(=O)C(C)C)ccc1-2	nt	2%	nt	-19%	11%	2%	nt	nt
CCCC1C(C#N)=C(N)Oc2n[nH]c(C(C)(C)C)c21 (stereo not given)	-3%	-3%	?	-11%	1%	-10%	8.3%	-6%
Cc1ccc(N(CC(=O)NC2CCCC2)C(=O)CCC(=O)Nc2ccccn2)cc1	-16%	-9%	-8%[46.1 µM]	3%	11%	6%	nt	nt
COc1ccc(N(CC(=O)NCCSc2ccccn2)S(=O)(=O)c2ccccc2)cc1OC	nt	1%	-3%[46.1 µM]	3%	-5%	-3%	nt	nt
COc1ccc(OC)c2[nH]c(=O)c(CCNC(C)=O)cc12	nt	-1%	nt	-4%	-54%	-2%	-2.8%	-10%
COc1ccc(OCc2ccc(C(=O)NN)cc2)cc1	5%	-9%	-2%	5%	21%	10%	1.5%	-12%
Clc1ccc(CN2CCN(c3ncnc4scc(-c5cccs5)c34)CC2)cc1	?	?	?	?	-16%	36%	-4.2%	8%
CCc1nnc(NC(=O)c2c(O)c3cccc4c3n(c2=O)CC4)s1	nt	-33%	nt	nt	-14%	nt	2.7%	7%
COc1ccc(CNC(=O)C2CCN(c3nnc(N4CCCC4=O)s3)CC2)cc1	nt	-6%	nt	-3%	9%	4%	nt	nt
Cc1cc(S(=O)(=O)NCCCN2CCOCC2)c(Cl)cc1Cl	14%[46.1 µM]	0%	-1%[46.1 µM]	13%	2%	-9%	nt	nt
Cc1cc(NC(=O)Nc2ccccc2[N+](=O)[O-])n(C)n1	nt	0%	nt	-8%	3%	21%	nt	nt
CN(Cc1cnccn1)Cc1nc(Cc2ccccc2F)no1	-8%[46.1 µM]	0%	11%[46.1 µM]	19%	-1%	4%	nt	nt
CCn1cc([N+](=O)[O-])c(C(=O)Nc2ccn(Cc3ccccc3F)n2)n1	20%	-1%	-2%	-15%	0%	6%	4.2%	-1%
COc1cccc(-c2nc(CS(=O)(=O)CC(=O)N3CCN(c4ccccc4)CC3)c(C)o2)c1	-20%[46.1 µM]	nt	?	-12%	nt	nt	-2.8%	?
COc1ccc(OC)c(C(=O)NC(CC(N)=O)c2ccc(N3CCC(N4CCCCC4)CC3)c([N+](=O)[O-])c2)c1 (stereo not given)	nt	20%	nt	-8%	-3%	-8%	nt	nt

Single entries from the list:
For RE007 growth inh, COc1ccc(CNC(=O)C2CCN(c3nnc(N4CCCC4=O)s3)CC2)cc1 has the entry 4%
For Lassa entry inh, O=C(Nc1ccc(Cl)cc1C(=O)N1CCOCC1)c1ccco1 has the entry 4%
For SARS PLP yeast, COc1ccc(N(CC(=O)NCCSc2ccccn2)S(=O)(=O)c2ccccc2)cc1OC has the entry 1%
